# LANA-nucl inh: LANA-nucleosome interaction inhibition | AID 720717 | 51,000 compounds, 0.3% hits | FITC-LANA1-23 / chicken nucleosome fluorescence polarization; hits give low values | z-score (no concentration beside the values);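 active = both repeat wells score below -2 in polarization z-score versus plate sample wells, excluding overly bright wells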;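 also: 100 nL library stock added to about 30 µL; numbers are from one replicate; some results filed as inactive read as strong as hits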
#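 System – purified chicken nucleosomes with FITC-labelled LANA N-terminal peptide (1-23) · Amount – 240 nM purified chicken nucleosomes (480 nM peptide binding sites), final · Also added – 50 nM FITC-LANA1-23 probe · Medium – TEN-BT buffer, pH 7.5 · Incubation – compound with peptide–nucleosome mix 10–45 min at room temperature · Detection – fluorescence polarization, ex 480 nm, em 535 nm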
# Ab BasE inh: blocks the Acinetobacter baumannii siderophore enzyme BasE. purified BasE, fluorescence polarization binding displacement. inhibition, % (test concentration not listed). 84,000 compounds, 0.1% hits;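 active = both replicates above 25% with normal brightness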;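 also: 0% = negative plate control signal and 100% = positive plate control signal; stock transfer was 100 nL into about 30 µL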
# * hit, by the source's call; / = not tested or not shown; & = joins results of further samples. This is a subset; rates above refer to the full screens.
SMILES,LANA-nucl inh,Ab BasE inh
CC(=O)OC1C([N+]2(C)CCCCC2)C[C@H]2C3CC[C@H]4C[C@H](OC(C)=O)C([N+]5(C)CCCCC5)CC4(C)[C@H]3CCC12C (some centres not stated),0.44,/
C=CCNC(C(=O)Nc1cccc(OC)c1)c1ccccc1 (configuration not stated),/,0.3
CCCOc1ccc2c(c1)C(=O)c1cc(OCC(=O)O)ccc1-2,-0.18,1.2
O=C1OC(c2ccccc2)OC(=O)C1=Cc1ccc(-c2cccc(Br)c2)o1 (configuration not stated),/,13
C/C=C/C=N/Nc1nnc2c(n1)[nH]c1ccccc12,3.4,-2.4
CC1Cc2ccccc2N1C(=O)CSc1nnc(COc2ccccc2Cl)o1 (configuration not stated),/,2.0
O=C(CCC(=O)c1cccs1)NCc1ccccc1,/,1.5
CCCn1c(SCC(=O)c2ccc3c(c2)OCCO3)nnc1-c1ccco1,-1.3,-2.9
CCC(=O)O[C@]1(C(=O)CCl)[C@@H](C)C[C@H]2[C@@H]3CCC4=CC(=O)C=C[C@]4(C)[C@@]3(F)[C@@H](O)C[C@@]21C,1.6,/
Cc1cc2nccc(-c3cccnc3)n2n1,0.2,-1.6
N[C@@H]1[C@@H](O)[C@H](O)[C@@H](CO)O[C@H]1O,-0.27&0.65,-0.3
NS(=O)(=O)c1ccc(CCN2C(=O)CCC2=O)cc1,/,-0.7
CC(C)(C)N1C(=O)NC(=O)/C(=C\c2ccco2)C1=O,-0.35,0.7
N#Cc1ccc(/C=N/n2cnc3sc4c(c3c2=O)CCC4)cc1,/,-0.1
COc1cccc(C=Nc2cccc(NC(=O)c3ccc(F)cc3)c2)c1O,/,-3.9
CCS(=O)(=O)N1CCCC(C(=O)NCc2cccc(OC)c2)C1 (configuration not stated),0.66,-0.6
N#Cc1ccc(-c2cccc(C(F)(F)F)c2)nc1Cl,-1,/
Nc1cc(=O)[nH]c(=O)n1-c1cccc(Cl)c1,-0.45,1.2
NS(=O)(=O)c1ccc(CNc2ccc3ccccc3n2)cc1,/,1.3
Nc1c(Nc2cccc(C(=O)O)c2)c2ccccc2oc1=O,-0.053,2.5
CCNC1CC(=O)N(c2ccc(C(=O)OCC)cc2)C1=O (configuration not stated),2.3,-3.4
COc1ccc(OCC(NC(=O)Cn2nc(C)c3ccccc3c2=O)C(C)C)cc1 (configuration not stated),-1.1,0.6
S=C(Nc1ccccc1)N1c2ccccc2Sc2ccccc21,/,-2.1
CCn1c(O)c(N=O)n(CC)c1=S,/,1.0
CCCn1c(SCC(=O)c2cc(C)n(C)c2C)n[nH]c1=O,/,1.0

# Next part, overlapping the part above by 6 compounds.
SMILES,LANA-nucl inh,Ab BasE inh
Nc1c(Nc2cccc(C(=O)O)c2)c2ccccc2oc1=O,-0.053,2.5
CCNC1CC(=O)N(c2ccc(C(=O)OCC)cc2)C1=O (configuration not stated),2.3,-3.4
COc1ccc(OCC(NC(=O)Cn2nc(C)c3ccccc3c2=O)C(C)C)cc1 (configuration not stated),-1.1,0.6
S=C(Nc1ccccc1)N1c2ccccc2Sc2ccccc21,/,-2.1
CCn1c(O)c(N=O)n(CC)c1=S,/,1.0
CCCn1c(SCC(=O)c2cc(C)n(C)c2C)n[nH]c1=O,/,1.0
Cc1cc(=O)c2c(=O)oc3ccccc3c2o1,0.97,0.8
CCn1c(C)cc2cc(N)ccc21,0.57,0.2
CCOC(=O)c1c(CNC(=O)c2ccc(N3CCOCC3)nc2)c(C)n(C2CC2)c1C,0.74,-2.3
CC(C)NC(=O)CSc1ccc2c(c1)OCCO2,/,2.0
Oc1ccc(CN2CCN(Cc3ccccc3)CC2)c2cccnc12,-0.48,4.4
O=C(/C=C/Sc1ccc(Cl)cc1)c1ccccc1,/,1.0
CCOC(=O)C1=NNC2C(=O)N(CC)C(=O)C12 (configuration not stated),-0.84,2.0
Cc1cnc(N2CCN(NC(=S)Nc3cccnc3)CC2)c(Cl)c1,/,-0.6
CC(C)(/C=N/N(Cc1ccccc1)c1ccccc1)CO,/,-1.6
COC(=O)CCS(=O)(=O)c1nc(-c2ccc(OC)c(OC)c2)cc(C(F)(F)F)n1,-0.83,2.2
CS(=O)(=O)NCCc1c[nH]c2ccc(Cl)cc12,-0.16,1.7
COc1ccc(C2CC2/C(=N/O)c2ccccn2)cc1 (configuration not stated),0.0075,/
N#Cc1ccc(S(=O)(=O)N2CCNCC2)cc1,0.51,2.6
CCOC(=O)c1ccc(OC(=O)CCCCCN=C(N)N)cc1,0.7&-0.97,-1.4
Cc1cc(C(=O)N2CCCC2)on1,-0.91,0.0
Cc1ccccc1C(=O)NCCc1ccc(S(N)(=O)=O)cc1,/,0.6
c1ccc(Cn2c(NCc3ccco3)nc3ccccc32)cc1,0.62,-2.6
Cc1ccc(Cc2c(C)nc(NCc3ccccc3)[nH]c2=O)cc1,0.19,3.0
O=C(Cc1noc2ccccc12)NCCN1CCN(Cc2ccccc2)CC1,0.1,0.6
Cc1ccccc1OCc1ccc(C(=O)NC(C)C)o1,0.62,1.0
CN(C1CCCCC1)C(c1ccc(F)cc1)c1nnnn1C1CCCCC1 (configuration not stated),-0.49,1.1
Cc1cc(C)nc(SCc2noc(-c3ccc(Cl)cc3)n2)n1,0.35,-1.6
COc1ccc(Cl)cc1N1Cc2cc(C)c(C)cc2C1,-0.38,-0.7
CCOC(=O)Oc1ccc2c(c1)C(C)=CC(C)(C)N2C(=O)OCC,/,0.3
COc1ccc2c(=O)/c(=C/c3ccc4c(c3)OCO4)oc3cccc1c32,/,-1.4

# Five successive compounds from above, for reference:
SMILES,LANA-nucl inh,Ab BasE inh
CN(C1CCCCC1)C(c1ccc(F)cc1)c1nnnn1C1CCCCC1 (configuration not stated),-0.49,1.1
Cc1cc(C)nc(SCc2noc(-c3ccc(Cl)cc3)n2)n1,0.35,-1.6
COc1ccc(Cl)cc1N1Cc2cc(C)c(C)cc2C1,-0.38,-0.7
CCOC(=O)Oc1ccc2c(c1)C(C)=CC(C)(C)N2C(=O)OCC,/,0.3
COc1ccc2c(=O)/c(=C/c3ccc4c(c3)OCO4)oc3cccc1c32,/,-1.4

# (cont.)
SMILES,LANA-nucl inh,Ab BasE inh
CCOC(=O)Cc1csc(NC(=S)NC(=O)c2ccco2)n1,/,1.5
C=COc1ccc(N)cc1,-0.32,0.8
O=S(=O)(NCCc1csc2nc(-c3ccccc3)nn12)c1ccccc1,1.2,-6.0
O=C(c1ccco1)N1CCC(C(=O)N2CCc3ccccc32)CC1,0.71,-2.6
Nn1c(Cc2ccccc2)nc2cc(Cl)ccc2c1=O,0.82,-0.5
CCc1[nH]nc2c1C(c1cccc(OC(=O)N3CCOCC3)c1)C(C#N)=C(N)O2 (configuration not stated),/,2.7
S=C(NCCN1CCOCC1)N1CCN(c2cccc(Cl)c2)CC1,/,-3.5
N=C1S/C(=C\c2ccco2)C(=O)N1c1ccc(Oc2ccccc2)cc1,-0.19,-6.7
CN1C(=O)C2C(C1=O)C1(C)C=CC2(C)O1 (configuration not stated),0.33,0.8
CCOC(=O)c1sc2nc(CSc3nc4ccccc4c(=O)n3CCOC)[nH]c(=O)c2c1C,/,-0.3
Cc1ccc(S(=O)(=O)/C=C2\NC(=O)CS2)cc1,/,0.9
O=C(O)c1nn(CC(=O)N2CCCCCC2)c(=O)c2ccccc12,/,1.1
CN(Cn1nc(-c2ccc3c(c2)OCO3)oc1=S)C1CCCCC1,/,0.7
O=C(NCC1COC2(CCCC2)O1)C1CC1 (configuration not stated),-1.4,1.6
CSc1nnc(-c2ccccc2NC(=O)c2ccccc2)c(=O)[nH]1,-0.096,1.5
CN(C)C(=O)CSc1nnc(-c2ccncc2)n1C,0.72,-0.3
Cc1cc(C)c2c(n1)sc1c(=O)n(/N=C/c3cccs3)cnc12,-0.039,0.3
COc1ccc(Cl)cc1C(=O)OCC(=O)N1CCN(C(=O)COC(=O)c2cc(Cl)ccc2OC)CC1,/,0.7
CC(NCc1ccc2c(c1)OCO2)C(=O)NC1CCCCC1 (configuration not stated),0.11,0.8
CCCn1c(SCc2csc(-c3ccccc3)n2)n[nH]c1=O,/,2.2
CC1CCCC(C)N1C(=O)CSc1nncn1C (configuration not stated),/,-4.3
O=C(NCc1ccc(F)cc1)c1cc(C2CC2)on1,-0.92,-0.9
CCOC(=O)CCc1c(C)c2cc(Cl)c(OCC(N)=O)cc2oc1=O,-0.67,2.7
CN1CCN(c2ccc(NC(=O)CCN3C(=O)CSc4ccccc43)cc2)CC1,/,0.7
O=C1C2CCCC2=NN1c1ccccc1 (configuration not stated),/,2.4
# Further compounds
SMILES,LANA-nucl inh,Ab BasE inh
Cc1cccc(-c2cc3nc4c(c(NCCN(C)C)n3n2)CCC4)c1,-0.53,-1.3
COC(=O)c1c(NC(=O)Cc2cccs2)sc2c1CCCC2,2.3,-3.8
O=C(Nc1nnc(-c2ccco2)o1)c1ccc(S(=O)(=O)N2CCCc3ccccc32)cc1,0.28,2.2
Cc1ccc(C2=NN(S(C)(=O)=O)C(c3ccc4nccnc4c3)C2)cc1 (configuration not stated),/,-2.6
COc1ccc(C(=O)C(C)Sc2nc3ccccc3n2C)c(OC)c1 (configuration not stated),/,-1.0
CC(=O)O/N=C/c1ccc2c(c1)CCO2,-0.27,5.2
Cc1nn(Cc2ccccc2Cl)c2sc(C(=O)N3CCc4ccccc43)cc12,/,-4.4
Nn1c(-c2ccco2)n[nH]c1=S,/,0.9
C/C(=N\NC(=O)c1ccc(O)cc1)c1ccc(S(=O)(=O)NCc2ccco2)cc1,/,29*
CC(C)N(Cc1ccccc1)C(=O)c1ccc(OC(F)(F)F)cc1,0.15,/
Cc1ccc(NS(=O)(=O)c2ccc(C)c(C(=O)OCC(=O)NCc3ccco3)c2)cc1,/,-0.3
C=CCNc1ncnc2cc(OC)c(OC)cc12,-0.22,1.6
S=C(NC1CC2CCC1C2)NN1C2CSC1CS2 (configuration not stated),-0.026,-0.6
O=C(CSc1nc2c(c(=O)n1Cc1ccccc1)SCC2)N1CCCC1,-0.51,1.8
CCn1c(=O)c2sccc2n2c(CCCC(=O)N3CCN(c4ccccc4)CC3)nnc12,0.57,0.5
O=C(c1ccccc1S(=O)(=O)NCc1ccccc1)N1CCCC1,/,0.8
COc1cc2c(cc1OC)C(c1ccccc1)N(C(=O)Cn1cnnn1)CC2 (configuration not stated),/,1.4
O=C(NCc1ccccc1)/C(=C/c1ccco1)NC(=O)c1ccco1,-0.19,1.5
Cc1nc(SCC(=O)N(C)c2ccccc2)nc(C)c1C,/,0.5
O=C(NC12CC3CC(CC(C3)C1)C2)c1ccco1,-1.1,0.7
O=C(Nc1ccc(-c2nc3ccccc3o2)cc1)c1ccc(C(=O)c2ccccc2)cc1,/,2.2
O=C1CCC(C(=O)Nc2nnc(Cc3ccccc3)s2)=NN1,/,1.8
CCOCc1c[nH]c(=O)[nH]c1=O,/,1.9
Cc1ccc(-n2c3c4c(nc(N5CCOCC5)c(C#N)c4c(C#N)c2=S)NC2(CCCCC2)N3)cc1,/,2.6
CC(C)(C)c1ccc(-c2noc(-c3ccccc3)n2)cc1,0.21,0.0
# New compounds follow
SMILES,LANA-nucl inh,Ab BasE inh
N#CCC(=O)c1ccc(Br)cc1,-0.38,0.9
O=C(/C=C/c1ccccc1)Nc1ncn[nH]1,-0.38,1.1
CCCCSC1=C(C#N)C(=O)NC(CCC)S1 (configuration not stated),-0.74,2.3
COC(=O)c1cc(C(=O)OC)n(Cc2ccc(Cl)cc2Cl)n1,0.27,-3.7
O=C1CN(NC(=O)COc2ccc(Cl)cc2)C(=O)N1,/,0.3
C=CCNC(=O)C(C)Sc1nnc2c(n1)[nH]c1ccccc12 (configuration not stated),0.17,1.0
CC1CCN(c2nc3c(S(=O)(=O)c4ccccc4)nnn3c3ccccc23)CC1,0.071,-0.2
CC1CCN(c2ccc(C(N)=O)cc2NC(=O)c2ncoc2-c2ccc3ccccc3c2)CC1,0.1,-1.3
CNC(=O)Nc1cccc(C(F)(F)F)c1,0.54,-2.9
COCCCn1c(=C(C#N)C#N)s/c(=C/c2ccncc2)c1=O,/,0.8
c1cn(-c2ccc(-c3csnn3)cc2)cn1,-0.034,/
COC(=O)c1cc(OC(=O)c2ccc(Cl)cc2)n(C(C)(C)C)n1,/,1.6
CN(CC(=O)NCCc1ccc(S(N)(=O)=O)cc1)Cc1cccs1,/,2.2
Cc1ccc(C(C(=O)NC2CCCC2)N2CCC3(CC2)OCCO3)cc1 (configuration not stated),0.48,0.6
CCC(C)C(=O)Nc1ccc(OC)cc1 (configuration not stated),0.51,-2.1
OC(CNCc1ccc2c(c1)OCO2)COc1ccc(F)cc1 (configuration not stated),/,-0.5
Cc1cccc(OCC(O)CN)c1 (configuration not stated),-0.66,-0.8
O=C(O)c1ccc(CSc2nc(-c3ccccc3)cc(C(F)(F)F)n2)cc1,/,2.3
O=C1c2ccccc2C(=O)C1c1ccc(OC(F)F)cc1,/,2.4
O=C(O)CCc1cn(CCC(=O)O)nc1-c1ccc(Cl)cc1,/,2.0
O=C(O)CSCC(=O)c1ccccc1,0.52,1.8
COC(=O)/C=C1/C(=O)N(C(C)=O)c2ccccc21,-0.3,-3.8
O=C1CN(C(=O)COC(=O)/C=C/c2ccco2)c2ccccc2N1,/,-0.8
NCc1cn(-c2ccccc2)nc1-c1ccccc1,/,0.1
CCOC(=O)c1ccoc1CSCc1ccc(C(=O)OC)o1,/,-1.1
O=C(CSc1ncccn1)N1N=C(c2cccs2)CC1c1ccco1 (configuration not stated),/,-6.4
CN1CCN(/C=N/c2nc3c(s2)CCCC3)CC1,/,0.9
NS(=O)(=O)c1cc2c(cc1Cl)NC=NS2(=O)=O,-0.017&0.036&-0.38,1.6&-1.2
NS(=O)(=O)c1ccc(CNC(=O)COC(=O)c2ccccn2)cc1,/,0.6

# Screening data as filed in PubChem.
